# Compound activity: PubChem BioAssay, National Center for Advancing Translational Sciences (NCATS)
# TRPML1 agonist – activates the human TRPML1 channel; TRPML1-expressing cells, Ca2+ dye fluorescence, FDSS; host cell line not named in the record; reference of the full effect not given here; activation, % (no concentration beside the values); 0.12% of 410,000 active; in the data active = activation above about 50%; inconclusive = about 30% to 50%; inactive = below about 30%; also: 0% is about no effect; the text of the record puts the active cut at 80%
#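 Calcium fluorescence on an FDSS kinetic reader gave the read-out. Tet-induced TRPML1-DL cells were plated overnight, dye-loaded (Ca8 with quencher, 45-90 min, room temperature, dark), then read 110 s after compound addition, and again 110 s after 4uM final 54-4 (EC80).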
# TRPML1 inh – human mucolipin-1 channel inhibition | TRPML1-inducible cells, Ca2+ dye fluorescence, FDSS; hits give low values; inhibition of EC80 agonist-evoked calcium signal | activity change, negative = inhibition, % (concentration not given with the values) | 0.02% of 390,000 active; in the data active means activity change below about -50%; inconclusive means about -30% to -50%; inactive means above about -30%;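 also: stimulus is agonist 54-4 at its EC80 concentration; % is scaled to controls: 0 for no effect and ±100 for the full control effect; compound concentration not given in the record; the text of the record puts the active cut at -80%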
#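 Calcium fluorescence in TRPML1-DL cells induced overnight with Tet: a 110 s read after compound pin addition, then a 110 s antagonist read after challenge with 54-4 at 4 uM final (EC80).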
# D2 potentiator – positive allosteric modulators of human D2 dopamine receptor; 0.23% of 360,000 active; DiscoveRx D2 beta-arrestin cells, luminescence, 90 min; 100% = 57 uM dopamine signal; potentiation, % (no concentration beside the values); active = potentiation of 50% or more; inconclusive = 30% to 50%; inactive = 30% or less;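 also: compound concentration not given in the record; tested on top of an EC20 dose of dopamine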
#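 D2 cells co-treated with compound plus 50 nM dopamine (EC20) for 90 min at 37 deg C to detect potentiation. Beta-arrestin recruitment was read as enzyme-fragment luminescence after 1 h at ambient temperature. Full response was set by 57 uM dopamine.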
# D2 ag – agonists of human D2 dopamine receptor (beta-arrestin); activation, % (no concentration beside the values); AID 624465; DiscoveRx PathHunter D2 beta-arrestin, luminescence, 90 min; 100% = 57 uM dopamine signal; 0.084% of 360,000 active; in the data active = activation above about 40%; inconclusive = about 15% to 40%; inactive = below about 15%; also: compound concentration not given in the record; the text of the record calls up to 30% inactive
#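 Agonist mode: compounds alone added to overnight-plated D2 PathHunter cells for 90 min at 37 C, with 57 uM final dopamine (EC100) defining full response. Beta-arrestin recruitment detected by chemiluminescent reagent, read after 1 h at ambient temperature.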
# Six1-Eya2 inh – inhibitors of human Six1/Eya2 interaction; Q15475+O00167; AlphaScreen GST-Six1/His-Eya2 binding, biochemical; hits give low values; control for the full effect not named in the record; activity change, % (no concentration beside the values); 0.56% of 360,000 active; in the data active = activity change below about -65%; inconclusive = about -30% to -65%; inactive = above about -30%; also: % is scaled to controls: 0 for no effect and ±100 for the full control effect; compound concentration not given in the record
# Target sequence (O00167 whole entry, looked up): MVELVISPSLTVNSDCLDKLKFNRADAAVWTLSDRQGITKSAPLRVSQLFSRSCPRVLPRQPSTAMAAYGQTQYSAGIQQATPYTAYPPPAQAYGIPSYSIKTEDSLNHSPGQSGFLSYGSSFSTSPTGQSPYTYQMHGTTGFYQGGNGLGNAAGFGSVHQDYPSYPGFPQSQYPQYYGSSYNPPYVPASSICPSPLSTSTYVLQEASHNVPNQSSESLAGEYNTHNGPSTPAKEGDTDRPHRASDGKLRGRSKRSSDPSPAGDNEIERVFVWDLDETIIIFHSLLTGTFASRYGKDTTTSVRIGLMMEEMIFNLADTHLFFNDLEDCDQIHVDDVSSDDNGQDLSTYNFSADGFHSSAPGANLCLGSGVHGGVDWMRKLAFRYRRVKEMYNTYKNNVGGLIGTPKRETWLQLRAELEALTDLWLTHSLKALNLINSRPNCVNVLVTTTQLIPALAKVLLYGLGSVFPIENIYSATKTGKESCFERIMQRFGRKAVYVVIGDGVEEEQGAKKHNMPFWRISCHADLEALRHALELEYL
# Target sequence (Q15475 whole entry, looked up): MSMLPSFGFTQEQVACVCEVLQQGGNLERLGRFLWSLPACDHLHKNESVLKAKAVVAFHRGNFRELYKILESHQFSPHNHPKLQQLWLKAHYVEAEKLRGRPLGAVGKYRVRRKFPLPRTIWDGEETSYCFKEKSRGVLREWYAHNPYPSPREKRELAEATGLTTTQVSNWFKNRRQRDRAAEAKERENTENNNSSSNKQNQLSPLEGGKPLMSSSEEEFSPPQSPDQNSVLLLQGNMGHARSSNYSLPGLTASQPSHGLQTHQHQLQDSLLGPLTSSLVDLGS
#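 GST-Six1 + His-Eya2 (5X stock: 250/500 nM); Tris pH 8.0, 300 mM NaCl, 0.05% BSA, 0.02% Tween 20; GSH donor/Ni acceptor beads; 1 h 37 °C dark; AlphaScreen readout.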
# PINK1 modulator – PINK1 expression modulation; PINK1 immunofluorescence, high-content cytometry, 24 h; Potency, µM (top dose mostly 76.6 µM), for the others: at the top dose activation (PINK1 increase), hits mostly activators; 0.2% of 410,000 active; AID 624263; active = well fitted activation curve with a large enough effect; inconclusive = small, poorly fitted or top-dose-only effect; inactive = flat fitted curve, though single readings scatter; cell line not stated here;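 also: potency is read from the fitted curve at half-maximal effect; % of control where 0% means no effect; nearly all actives have a fitted effect of over 65% in size; a mitochondrial uncoupler was the plate control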
#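 Compound titrations (5 concentrations, 24 h) on a stable cell line; DMSO and CCCP controls. Endpoint: fixed-cell PINK1 immunofluorescence with mitochondrial, cell and nuclear markers, scanned by microplate cytometer.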
# Starred values were filed as active, the others as inactive; u = inconclusive; x = not tested or not shown; [ ] = remark or other dose.
SMILES,TRPML1 agonist,TRPML1 inh,D2 potentiator,D2 ag,Six1-Eya2 inh,PINK1 modulator
COc1ccccc1NC(=O)C1=C(C)Nc2nnnn2C1c1ccccc1OC (stereo not given),-0.2,13.6,1.4,-1.5,-3.7,0.6%
Cc1ccc(-c2ccc(CCC(=O)O)n2-c2ccc(O)cc2)cc1,0.2,14.7,4.9,3.6,1.9,3.4%
CC/C(=N/NC(=O)c1ccc(Br)o1)c1ccc(Cl)cc1,2.8,-1.8,9.9,2.2,-0.2,u
COCCNC(=O)C(=O)NCC1OCCN1C(=O)c1ccc(Cl)cc1 (stereo not given),0.1,-9.0,-4.1,-1.3,3.9,-0.7%
CC(=O)Nc1ccc(S(=O)(=O)Nc2cccc(N(C)S(C)(=O)=O)c2)cc1,-0.5,21.7,-16.9,1.8,5.2,1.9%
O=[N+]([O-])c1cc2c(cc1/C=N/n1cnnc1)OCO2,0.9,12.7,-6.2,-3.6,0.4,-0.4%
CCOc1cc(NC(=S)NCCCN2CCOCC2)c(OCC)cc1NC(=O)c1ccccc1,-0.8,17.5,-2.7,-2.3,-5.1,12.0%
Cc1cc(/C=C2\C(=N)N3C(SCc4ccccc4)=NSC3=NC2=O)c(C)n1Cc1ccccc1,-0.7,18.7,-8.5,-2.0,3.4,6.2%[38.3 µM]
O=C(Cn1c(C(F)(F)F)nc2ccccc21)Nc1ccccc1C(=O)O,0.2,-1.7,-5.2,-11.0,9.2,2.8%
COc1ccc2c(Cl)c(C(=O)NCCc3ccc(S(N)(=O)=O)cc3)sc2c1,-1.0,-2.4,-31.1,-0.8,-12.8,1.0%
CC(=O)/C=C\c1cn(-c2ncc(C(F)(F)F)cc2Cl)c2ccccc12,1.3,19.6,-3.6,-4.6,-7.8,3.4%
O=C(c1ccncc1)N1CCN(C(=O)c2cccc3ccccc23)CC1,-0.7,7.6,0.7,-1.7,-5.0,-0.4%
CCOC(=O)c1c(CN2CCC(C)CC2)n(C)c2cc(Br)c(OC)cc12,0.2,11.9,-13.7,-3.4,3.2,11.4%
C=C(C)CNC(=S)N/N=C/c1c(F)cccc1F,1.9,2.5,-4.7,-1.7,0.5,0.5%
C[C@@H]1CN([C@H](C)CO)C(=O)CCCn2cc(nn2)CO[C@H]1CN(C)C(=O)Nc1ccc(F)cc1,-0.2,-12.9,2.2,-2.7,-15.1,3.7%
Cc1cc(S(=O)(=O)NCc2cccnc2)ccc1F,-0.7,-5.1,-0.7,-1.5,1.3,-0.4%
COc1ccc(C(=O)Cn2c(Cl)nc3c2c(=O)n(C)c(=O)n3C)cc1,0.6,42.2,-9.3,-1.1,11.3,1.3%
COC(=O)CSc1nc2ncccc2[nH]1,0.1,23.9,0.0,0.1,-0.3,-0.1%[38.3 µM]
CCOC(=O)N1CCN(C(=O)c2ccc3nc4ccsc4c(=O)n3c2)CC1,-0.1,-3.7,2.6,1.7,-7.4,0.2%
CCOC(=O)COc1ccc(/C=C2\NC(=S)N(CC)C2=O)cc1,0.4,-6.5,-24.4,-3.0,3.5,11.3%
COC(=O)[C@H]1C[C@@]2(O)CN(S(=O)(=O)c3ccc(C)cc3)C[C@@]2(OC(=O)NC2CCCC2)C[C@H]1C(=O)OC,-0.5,-9.5,2.3,-6.0,7.7,0.1%
Cc1ccc(S(=O)(=O)N/N=C/c2cc([N+](=O)[O-])ccc2O)cc1[N+](=O)[O-],1.2,2.7,-17.1,-1.4,-8.4,0.5%
CN(C)CC(C)(C)CNS(=O)(=O)c1cccc(Cl)c1Cl,0.7,-0.8,-5.5,1.0,9.9,0.2%
CCNC(=S)N(CCc1ccc(S(N)(=O)=O)cc1)C1CC(=O)N(c2ccccc2)C1=O (stereo not given),4.6,0.8,-1.3,-1.4,1.4,u
CN[C@@H](CO)C(=O)NC[C@H]1O[C@@H](n2cnc3c(=O)[nH]c(N)nc32)[C@H](O)[C@@H]1O,-0.1,43.9,-0.1,-0.9,-2.0,0.0%
CC1Sc2ccc(S(=O)(=O)N3CCC(C(=O)NCC(C)c4ccccc4)CC3)cc2NC1=O (stereo not given),-0.7,16.3,-13.6,-2.1,1.7,0.2%
CCN1C(=O)[C@H]2[C@@H](c3ccc(-c4ccc(C(C)=O)cc4)cc3)N3CCCC[C@@]3(C(=O)OC)[C@H]2C1=O,-0.4,56.2,-10.3,0.0,2.3,4.2%
COC(=O)C1=C(Cn2cnc3ccccc32)NC(=O)NC1c1cc(C)ccc1C (stereo not given),-0.7,8.1,90.7*,51.6*,1.1,-1.7%
C=C1CCC[C@]2(C)C[C@H]3OC(=O)C(CN(C)CC(OC)OC)[C@H]3CC12 (stereo not given in full),-0.2,-9.1,4.3,-1.0,7.6,-3.7%
COc1ccc(NC2=C(c3ccccc3)C(=O)c3ccccc32)cc1Cl,0.1,3.1,x,x,x,5.9%

# Copied from the listing, 2 compounds:
SMILES,TRPML1 agonist,TRPML1 inh,D2 potentiator,D2 ag,Six1-Eya2 inh,PINK1 modulator
COC(=O)[C@H]1C[C@@]2(O)CN(S(=O)(=O)c3ccc(C)cc3)C[C@@]2(OC(=O)NC2CCCC2)C[C@H]1C(=O)OC,-0.5,-9.5,2.3,-6.0,7.7,0.1%
Cc1ccc(S(=O)(=O)N/N=C/c2cc([N+](=O)[O-])ccc2O)cc1[N+](=O)[O-],1.2,2.7,-17.1,-1.4,-8.4,0.5%

# Further structures.
SMILES,TRPML1 agonist,TRPML1 inh,D2 potentiator,D2 ag,Six1-Eya2 inh,PINK1 modulator
CCN(CC)CCCN1C(=O)c2oc3ccccc3c(=O)c2C1c1cc(OC)ccc1OC (stereo not given),0.9,-3.0,-3.0,1.9,0.2,-1.6%[38.3 µM]
CCSc1nnc(-c2c[nH]c3ccccc23)o1,1.4,-4.2,1.9,1.6,-25.9,6.2%
O=C(CSc1nc(O)c(C(c2ccccc2)c2ccccc2)c(=O)[nH]1)N1CCOCC1,0.4,-1.5,-3.3,-0.8,1.5,-0.6%
COc1cc(C(=O)NC2=C(C#N)CCC2)cc(OC)c1OC,0.8,6.4,-10.4,-6.3,-2.3,3.0%
Cc1ccc(S(=O)(=O)N2CCC[C@H]2C(=O)Nc2ccccc2C)cc1,-1.0,-0.7,-10.4,-3.2,-0.4,0.0%
CN1CCn2cnc(C(=O)NCCCCCNC(=O)OC(C)(C)C)c2C1=O,x,x,x,-0.5,-3.4,1.4%
O=C(c1ccc(COc2ccccc2Br)cc1)N1CCCCCC1,1.1,-12.4,-2.5,-3.7,-5.1,3.5%
Cc1ccc(S(=O)(=O)N(C)CC(=O)NCC(c2ccco2)N(C)C)cc1 (stereo not given),-0.2,5.4,-2.2,10.1,0.6,1.0%
CCCN(CCC)CCNC(=O)CCC(=O)Nc1ccc2nc(N3CCOCC3)cc(C)c2c1,-0.9,76.5,-5.5,-1.8,2.0,0.1%
CNc1nc(-c2ccccc2)c2sccc2n1,-0.4,x,-0.3,-6.5,-11.6,1.7%
Cc1ccc(-c2nnc(CSc3nnc(C)s3)o2)cc1,-0.3,-10.3,-1.9,1.1,1.7,-7.3%[38.3 µM]
COc1ccc(Cl)cc1N(CC(=O)NCCSCc1ccccc1)S(C)(=O)=O,-0.2,10.2,-3.9,-1.2,-4.9,-1.3%
COc1ccc(NC(=O)CSc2nc3ccccc3cc2Cc2ccccc2)cc1,1.4,38.0,-15.1,-0.2,-2.8,11.2µM*
O=C1CC(c2cccc([N+](=O)[O-])c2)c2ccc3ccccc3c2N1 (stereo not given),0.7,-9.9,-17.5,0.3,-13.6,1.0%[38.3 µM]
CCOC(=O)Cc1csc(N/N=C/c2ccc(C(F)(F)F)cc2)n1,0.1,-1.5,-5.1,-1.3,0.9,2.3%
COc1cc(C(=O)NNC(=O)COc2ccccc2Cl)ccc1OCC(=O)N1CCOCC1,1.0,15.7,-3.2,-1.9,-0.2,1.0%
CCCC(=O)Nc1ccc(NC(=O)c2cccc(OC)c2)nc1,-0.1,1.2,-17.5,-2.2,-0.8,-0.4%
O=C(c1cccc(C(=O)N2CCN(c3ccc(F)cc3)CC2)c1)N1CCN(c2ccc(F)cc2)CC1,0.9,-10.4,-15.5,-0.2,-17.9,16.9%[38.3 µM]
O=C(NCc1ccc2c(c1)OCO2)NC12CC3CC(CC(C3)C1)C2,0.3,-4.8,-10.4,-0.5,3.3,1.3%
FC(F)(F)c1cnc(Sc2ncn[nH]2)c(Cl)c1,0.6,6.4,1.2,4.3,-0.9,0.0%
COc1ccc(C(=O)NCC(=O)N2CCN(c3ccc(Cl)cc3)CC2)cc1,-0.3,-0.6,-0.7,1.2,-5.1,2.0%
CC1CCc2c(sc(/N=C/N(C)C)c2C#N)C1 (stereo not given),2.6,-10.9,-6.9,-2.8,-8.2,3.0%
COc1ccnc(N=CNOCc2ccc(C)cc2)c1C#N,0.0,5.5,-2.6,-1.5,0.7,8.5%
CC1=C(c2ccc(C)c(C)c2)S(=O)(=O)N(Cc2ccc(C(=O)NCc3ccccc3F)cc2)C1=O,3.3,26.3,x,x,x,-1.2%
C=CCN(CC=C)C(=O)C1CCN(Cc2ccc(OCc3ccccc3)cc2)CC1,0.0,-7.2,-36.2,-2.7,-0.4,5.5%
CC(NCCN(C)C)C1CCC2C3CCc4cc(O)ccc4C3CCC12C (stereo not given),-0.2,1.5,-18.9,-3.0,0.6,-7.2%
CCOC(=O)c1ccc(N2CCOCC2)c(NC(=O)c2ccc3c(c2)OCO3)c1,-0.6,7.4,-5.2,-7.8,6.0,1.2%
COc1ccc2c(c1)C(C1C(=O)CCCC1=O)c1ccccc1O2 (stereo not given),-0.1,0.5,-7.4,-0.9,10.6,0.0%
Cc1cc(Br)ccc1SCC(=O)NCC(c1ccco1)N1CCCCC1 (stereo not given),1.0,0.8,-16.1,-3.2,-4.6,u
Cc1ccccc1CN1CCN(CC(=O)NCc2ccccc2)C1=O,-0.2,8.2,1.5,-1.3,3.0,1.0%[38.3 µM]
CCOC(=O)n1c(=O)n(Cc2ccc(Cl)c(Cl)c2)c2ccccc21,2.1,-7.1,-17.9,-6.3,-13.3,26.3%
COC(=O)CNC(=O)CSc1nc2sc(-c3ccccc3)cc2c(=O)n1-c1ccccc1,2.0,-9.0,-9.0,-3.6,-5.2,1.6%
O=C(c1cnc2n(c1=O)CCS2)N1CCc2ccccc21,-0.1,-4.1,-2.3,-1.7,6.0,-0.4%
CNC1(C)[C@H]2CC[C@H](C2)C1(C)C (stereo not given in full),0.7,-4.5,2.0,0.4,0.1,1.8%
CCn1c(CSc2nc3ccccc3s2)nnc1SCC(=O)c1ccc2c(c1)OCCO2,1.4,4.6,-9.2,-2.6,-3.0,-0.9%
COCCn1c(SCc2ccc(OC)c(F)c2)nnc1-c1ccncc1,-0.1,20.3,-5.8,-1.6,9.6,3.1%
CC1CCCN(c2ccc3nncn3n2)C1 (stereo not given),0.0,-10.8,-11.4,-0.5,-0.5,-0.6%
COc1cc(C(C)=O)ccc1OCC(O)CNCC(O)c1ccccc1 (stereo not given),0.8,-3.9,-3.8,1.2,6.0,-1.0%
COc1ccc(CCn2c(C)cc(C(=O)CSc3nc(N)cc(=O)[nH]3)c2C)cc1,0.7,-10.4,6.5,4.8,-17.0,1.9%[38.3 µM]
Cc1ccc(Cl)cc1N1CCN(C(=O)c2ccc(CN3CCOCC3)cc2)CC1,0.7,-6.5,-18.2,-1.2,0.0,x
